TRPML1 agonist – human mucolipin-1 channel agonism; Q9GZU1; TRPML1-expressing cells, Ca2+ dye fluorescence, FDSS; host cell line not named in the record; reference of the full effect not given here; activation, % (no concentration beside the values); 410,000 tested, 0.12% active; AID 624414; in the data active = activation above about 50%; inconclusive = about 30% to 50%; inactive = below about 30%; also: 0% is about no effect; the text of the record puts the active cut at 80%
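Tetracycline-induced TRPML1-DL cells are seeded and incubated overnight before loading with a no-wash Ca2+ dye and quencher. Agonist activity is taken from the 110 s fluorescence read following compound pin-transfer on an FDSS, before EC80 54-4 challenge.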
CtBP-E1A blk – blocks the CtBP interaction with E1A | 340,000 tested, 0.49% active | AlphaScreen GST-E1A/His-CtBP binding, 1536-well; stronger effect = lower value; control for the full effect not named in the record | activity change, % (test concentration not listed); in the data active means activity change below about -65%; inconclusive means about -30% to -65%; inactive means above about -30%; also: % is scaled to controls: 0 for no effect and ±100 for the full control effect; compound concentration not given in the record
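GST-E1A and His-tagged CtBP (125 nM each as 5X stock) were preincubated with pin-transferred compound for 2 h at 37 °C in the dark, then glutathione donor and nickel acceptor beads were added for 1 h before AlphaScreen reading.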
Six1-Eya2 inh – inhibitors of human Six1/Eya2 interaction; AlphaScreen GST-Six1/His-Eya2 binding, biochemical; stronger effect = lower value; control for the full effect not named in the record; 360,000 tested, 0.56% active; activity change, % (no concentration beside the values); in the data active = activity change below about -65%; inconclusive = about -30% to -65%; inactive = above about -30%; also: % is scaled to controls: 0 for no effect and ±100 for the full control effect; compound concentration not given in the record
Target sequence (O00167 whole entry, looked up): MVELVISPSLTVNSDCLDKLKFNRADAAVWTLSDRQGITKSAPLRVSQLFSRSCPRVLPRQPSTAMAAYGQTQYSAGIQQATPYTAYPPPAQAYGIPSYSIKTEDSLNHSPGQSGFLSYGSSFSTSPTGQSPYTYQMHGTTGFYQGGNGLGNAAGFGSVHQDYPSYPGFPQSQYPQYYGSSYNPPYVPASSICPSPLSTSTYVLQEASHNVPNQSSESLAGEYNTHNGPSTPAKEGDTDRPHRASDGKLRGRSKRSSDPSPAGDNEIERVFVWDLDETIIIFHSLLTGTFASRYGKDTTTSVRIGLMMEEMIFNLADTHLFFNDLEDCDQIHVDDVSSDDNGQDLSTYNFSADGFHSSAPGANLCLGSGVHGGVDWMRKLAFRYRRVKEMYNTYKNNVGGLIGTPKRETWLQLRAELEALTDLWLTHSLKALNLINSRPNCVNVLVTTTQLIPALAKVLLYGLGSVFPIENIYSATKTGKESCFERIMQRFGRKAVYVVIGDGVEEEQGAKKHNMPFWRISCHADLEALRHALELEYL
Target sequence (Q15475 whole entry, looked up): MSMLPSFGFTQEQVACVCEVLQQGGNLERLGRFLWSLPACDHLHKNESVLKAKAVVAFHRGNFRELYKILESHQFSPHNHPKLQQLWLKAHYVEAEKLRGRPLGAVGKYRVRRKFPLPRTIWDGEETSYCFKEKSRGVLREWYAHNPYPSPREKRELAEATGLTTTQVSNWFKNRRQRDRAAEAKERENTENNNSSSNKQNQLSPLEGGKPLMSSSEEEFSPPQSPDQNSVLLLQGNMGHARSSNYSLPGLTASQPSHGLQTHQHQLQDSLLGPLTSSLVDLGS
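Compounds are tested against tagged Six1 and Eya2 proteins bridged by glutathione donor and nickel acceptor beads; after a one-hour incubation at 37 °C without light, AlphaScreen emission is recorded.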
TRPML1 blocker – blocks the human TRPML1 channel; activity change, negative = inhibition, % (no concentration beside the values); TRPML1-inducible cells, Ca2+ dye fluorescence, FDSS; stronger effect = lower value; inhibition of EC80 agonist-evoked calcium signal; 390,000 tested, 0.02% active; Q9GZU1; in the data active means activity change below about -50%; inconclusive means about -30% to -50%; inactive means above about -30%;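 also: stimulus is agonist 54-4 at its EC80 concentration; % is scaled to controls: 0 for no effect and ±100 for the full control effect; compound concentration not given in the record; the text of the record puts the active cut at -80%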
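Tet-induced TRPML1-DL cells loaded with Ca8 no-wash calcium dye were read kinetically on FDSS. Compound addition was followed by EC80 agonist 54-4 (4 uM final); inhibition was read over 110 s.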
D2 ag – agonists of human D2 dopamine receptor (beta-arrestin) | AID 624465 | P14416 | activation, % (concentration not given with the values) | DiscoveRx PathHunter D2 beta-arrestin, luminescence, 90 min; 100% = 57 uM dopamine signal | 360,000 tested, 0.084% active; in the data active = activation above about 40%; inconclusive = about 15% to 40%; inactive = below about 15%; also: compound concentration not given in the record; the text of the record calls up to 30% inactive
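Agonist mode: compounds alone added to overnight-plated D2 PathHunter cells for 90 min at 37 C, with 57 uM final dopamine (EC100) defining full response. Beta-arrestin recruitment detected by chemiluminescent reagent, read after 1 h at ambient temperature.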
PINK1 modulator – changes PINK1 expression; PINK1 immunofluorescence, high-content cytometry, 24 h; Potency, µM (highest dose often 76.6 µM), inactives show at the top dose activation (PINK1 increase), usual class: activators; 410,000 tested, 0.2% active; active = well fitted activation curve with a large enough effect; inconclusive = small, poorly fitted or top-dose-only effect; inactive = flat fitted curve, though single readings scatter; cell line not stated here;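 also: potency is read from the fitted curve at half-maximal effect; % of control where 0% means no effect; nearly all actives have a fitted effect of over 65% in size; a mitochondrial uncoupler was the plate control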
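Fluorescence from anti-PINK1 antibody, together with nuclear and cell stains, was scanned on a laser-scanning cytometer. Before staining, stable-line cells were incubated 24 hours with compounds at 5 concentrations; primary antibody 12 h at 10 degrees C.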
* marks the source's active call; other numbers are inactive results; ? = inconclusive; / = no result given; [ ] = another dose, or the depositor's remark.

SMILES | TRPML1 agonist | CtBP-E1A blk | Six1-Eya2 inh | TRPML1 blocker | D2 ag | PINK1 modulator
COc1ccc(/C=C/C(=O)OCC(=O)Nc2cccc(Oc3ccccc3)c2)c(OC)c1 | 0.7 | -18.3 | -1.5 | 2.0 | 0.3 | -1.8%
COc1ccc(S(=O)(=O)N2CCN(c3ncnc4c(-c5ccccc5)nsc34)CC2)cc1 | -0.7 | 5.2 | 0.0 | 6.2 | -0.8 | 1.1%
CCOc1ccccc1OCCCC(=O)N(CC)CC(=O)Nc1c(F)cccc1F | 0.1 | 5.8 | 5.8 | -1.7 | -2.0 | 1.6%
COc1ccc(NC(=O)COC(=O)c2ccc3ccccc3n2)cc1 | 1.1 | -0.4 | -7.0 | -0.5 | 0.8 | 0.3%
CC(C)Oc1ccc(S(=O)(=O)N2CCOCC2)cc1NC(=O)CCCSc1ccccc1 | 0.3 | 7.1 | -13.4 | -4.4 | 1.9 | 5.5%
Cc1cccn2c(=O)c3cc(S(=O)(=O)c4ccc(Br)cc4)c(=N)n(C4CCCCC4)c3nc12 | -0.6 | 7.3 | -0.1 | 5.7 | -0.7 | 1.4%
CCCn1c(=O)[nH]c(=O)c2c1nc(-c1ccccc1)n2CCN1CCOCC1 | -0.1 | 2.4 | 9.9 | 17.8 | 3.3 | -0.4%
Cc1oc(-c2ccccc2Cl)[n+]([O-])c1C | -0.1 | 2.4 | 1.0 | -3.9 | 2.1 | 3.5%[38.3 µM]
CC(=O)c1c(C)oc2ccc(N(C(=O)c3ccncc3)S(=O)(=O)c3ccccc3)cc12 | 0.9 | 0.6 | -24.7 | 17.2 | 3.2 | -0.8%
S=C1NCN(Cc2ccco2)CN1CCc1ccccc1 | 3.7 | -0.3 | -3.1 | -18.7 | -2.9 | 3.5%
CCC(C)c1ccc(C2C3=C(Nc4nc(N)[nH]c(=O)c42)c2ccccc2C3=O)cc1 (stereo unspecified) | -0.4 | -16.3 | -10.0 | -13.7 | -3.3 | 10.1%
O=C(Nc1nnc(/C=C/c2ccccc2)s1)c1ccco1 | 1.1 | / | -1.5 | 1.0 | -3.5 | 1.1%
CSCC[C@@H](CO)NC(=O)c1ccc2nc(C3CCCCC3)oc2c1 | 0.4 | 7.5 | -2.3 | -7.2 | -2.1 | 2.4%
O=C(O)c1ccccc1NCc1ccncc1 | -0.5 | -7.0 | -1.3 | 15.9 | -0.5 | 4.0%[38.3 µM]
C[C@H](NC(=O)c1ccc2c(c1)OCO2)c1nnc2ccccn12 | 0.7 | / | 3.5 | -6.6 | -2.2 | 0.1%
CCOC(=O)N1CCN(C(=O)c2ccc3c(c2)N(Cc2ccccc2F)C(=O)c2ccccc2S3=O)CC1 (stereo unspecified) | -0.4 | / | / | -0.1 | / | 0.1%
O=C(CC1SCCNC1=O)Nc1cccc([N+](=O)[O-])c1 (stereo unspecified) | 0.6 | -3.4 | -0.6 | 5.6 | -5.1 | 2.4%
O=C(COC(=O)c1ccc(O)cc1)Nc1ccc2c(c1)OCO2 | 0.4 | -0.6 | -13.5 | -7.8 | -1.3 | -0.4%
Cc1c(NS(=O)(=O)c2ccc(N3CCCCC3)c([N+](=O)[O-])c2)c(=O)n(-c2ccccc2)n1C | 0.2 | -12.0 | 4.0 | 18.0 | 0.4 | 0.6%
O=C(c1ccc(F)cc1)N1CCc2c([nH]c3ccccc23)C1c1ccc(Cl)cc1 (stereo unspecified) | -0.5 | / | / | -0.7 | / | 1.0%
CC(=O)Nc1cc(-c2cccc(C(=O)NCCO)c2)cn2c(-c3cccc(C(F)(F)F)c3)cnc12 | -0.7 | -10.5 | -7.0 | / | -7.8 | -0.8%
O=C(NCCN1CCOCC1)C(=O)NCC1OCCN1C(=O)c1ccc(Cl)cc1 (stereo unspecified) | -0.5 | 2.7 | 4.6 | 3.9 | -4.8 | 3.2%
COc1cccc(N2C(=O)CSC23C(=O)N(CC(=O)Nc2cccc(Cl)c2)c2ccccc23)c1 (stereo unspecified) | 2.0 | / | / | -7.1 | / | 0.4%
O=C(NC(=S)NC1CCN(Cc2ccccc2)CC1)c1ccc(F)cc1 | / | 0.7 | -19.9 | / | -6.1 | 1.1%
Cc1ccc(S(=O)(=O)CCC(=O)Oc2ccc(-c3nnco3)cc2)cc1 | -0.6 | -23.1 | -21.9 | -3.0 | -3.1 | 1.0%
Cc1ccc(N2C(=O)c3n[nH]c(C)c3C2c2ccccn2)cc1 (stereo unspecified) | -0.5 | 4.5 | 11.1 | -0.2 | 1.3 | 0.5%
CS(=O)(=O)N(Cc1ccco1)CC(O)Cn1c2ccccc2c2ccccc21 (stereo unspecified) | 0.1 | -0.1 | -5.9 | 25.3 | -3.1 | -1.3%
Cc1ccc(NC(=O)C(CC(C)C)NS(=O)(=O)c2ccc3c(c2)oc(=O)n3C)c(C)c1 (stereo unspecified) | 0.1 | / | / | 4.6 | / | 1.6%
CS(=O)(=O)c1ccc(NC(=O)c2cccc(-n3cnnn3)c2)cc1 | 0.5 | 1.0 | 2.1 | 7.3 | 3.2 | 0.9%
CC(=O)c1cccc(NC(=O)Nc2ccc(C(=O)N3CCOCC3)cc2)c1 | -0.8 | 7.5 | -0.9 | 0.8 | -1.2 | -1.0%
NCCN1CCN(S(=O)(=O)c2ccc([N+](=O)[O-])cc2)C=C1c1ccc(Cl)cc1 | -0.2 | -18.6 | -11.5 | 1.7 | ? | 2.1%
Cc1ccc(CNC(=O)Cc2ccc(-n3cccc3)cc2)cc1 | 0.6 | -1.1 | 0.4 | 22.9 | -2.3 | 7.1%
Cc1oc(-c2ccccc2Cl)nc1CN1CCCCC1CO (stereo unspecified) | 0.9 | -3.8 | 3.8 | -12.7 | -2.3 | -0.1%
COc1ccc(CCN2CC(C(=O)N3CCC(O)(c4ccccc4)CC3)CCC2=O)cc1 (stereo unspecified) | -0.3 | 5.3 | 2.5 | 7.7 | -3.9 | 2.6%
CCn1c(=O)cc(OCC(=O)O)c2ccccc21 | 2.1 | 4.0 | 8.1 | 8.5 | -0.5 | -2.7%
CCC(=O)Nc1cccc(C(=O)OCC(=O)c2ccccc2Cl)c1 | -0.3 | 2.2 | 3.1 | -5.9 | -2.2 | 6.2%[38.3 µM]

Shown as tab-separated lines: entries from further up
compound	TRPML1 agonist	CtBP-E1A blk	Six1-Eya2 inh	TRPML1 blocker	D2 ag	PINK1 modulator
NCCN1CCN(S(=O)(=O)c2ccc([N+](=O)[O-])cc2)C=C1c1ccc(Cl)cc1	-0.2	-18.6	-11.5	1.7	?	2.1%
Cc1ccc(CNC(=O)Cc2ccc(-n3cccc3)cc2)cc1	0.6	-1.1	0.4	22.9	-2.3	7.1%

The list goes on.
SMILES | TRPML1 agonist | CtBP-E1A blk | Six1-Eya2 inh | TRPML1 blocker | D2 ag | PINK1 modulator
Cc1occc1C(=O)NC1CCCN(Cc2ccc(Cl)cc2)C1 (stereo unspecified) | -0.4 | -1.1 | -9.4 | 20.5 | 1.1 | 1.9%
Fc1ccc(-c2csc(N3CCOCC3)n2)cc1 | 0.3 | -1.3 | -5.6 | ? | -1.2 | 1.8%
COc1ccc(CN(C)C(=O)Cc2c[nH]c3ccccc23)cc1 | / | 3.5 | 0.2 | / | 4.7 | -1.0%
COc1cnc(-c2ccccc2)nc1OC | 0.3 | 13.7 | 0.9 | -9.7 | 3.6 | -0.5%
CCCOc1ccc(C(=O)ON=C2CCN(C)CC2)cc1 | 0.2 | 0.0 | -7.9 | 18.1 | -3.6 | -0.2%
O=C(NC1CCS(=O)(=O)C1)c1cnccn1 (stereo unspecified) | 0.4 | / | 5.4 | 4.3 | 2.4 | 0.9%
NC(=O)c1nsc(C(=O)N(c2ccc(F)cc2)C(C(=O)NC2CCCC2)c2ccncc2)c1N (stereo unspecified) | -0.4 | -12.2 | -0.2 | -7.8 | -3.0 | 3.5%
CCNc1nc(NCC)n2c(SCc3nc4ccccc4c(=O)[nH]3)nnc2n1 | -0.8 | 7.4 | 5.4 | 7.8 | -3.5 | -1.1%
FC(F)(F)c1nnc2ccc(N3CCOCC3)nn12 | 0.5 | -0.3 | -1.2 | 4.1 | -2.1 | -1.8%
C=C(C)CN1C(=O)C(=O)N(CC(=C)C)C1=O | -0.5 | 0.1 | 5.5 | 17.7 | -4.1 | 2.0%
CC(C)c1cc(C(=O)NCc2ccc(F)cc2)no1 | -0.5 | / | / | 0.4 | / | 0.6%
COc1cc(CNC(=O)C2CCCC2)cc(OC)c1OC | -1.3 | 1.3 | 3.2 | -0.2 | -0.5 | 0.5%
CC(C)CC(=O)NC(=S)Nc1cccc(NC(=O)c2ccccc2Cl)c1 | 1.4 | -4.1 | -2.3 | 8.5 | -2.0 | 0.2%
CC1CN(C(=O)CCC(=O)N2CCCCC2)c2ccccc2O1 (stereo unspecified) | 0.1 | 4.4 | 4.1 | -27.9 | -3.3 | 2.4%
Fc1ccc(C(Nc2ccc(Cl)c(C(F)(F)F)c2)c2nnc(-c3ccccc3)o2)cc1 (stereo unspecified) | 2.9 | / | / | 47.7 | / | 19.5%
CC(C)C[C@@H]1Cc2[nH]c(=S)[nH]c(=O)c2[C@H](C)O1 | -0.5 | 5.9 | 0.1 | / | / | -1.4%
CC(=O)N/C(=C\c1ccc(F)cc1)C(=O)NC(Cc1c[nH]c2ccccc12)C(=O)O (stereo unspecified) | 0.2 | -0.3 | -12.4 | 17.7 | -0.9 | 2.3%
CCc1ccc(NC(=O)NCCN2CCc3ccccc3C2)cc1 | -0.3 | 7.2 | 5.8 | -19.1 | -0.8 | 1.0%
C/C(=N\NC(=S)Nc1ccc(C)cc1)c1cccc(N)c1 | 1.3 | -11.2 | -8.8 | 11.4 | -4.4 | 2.8%
Cc1c(NC(=O)COc2ccc3ccccc3c2)c(=O)n(-c2ccccc2)n1C | 0.6 | -15.3 | 1.2 | -5.4 | -3.4 | 0.2%
COc1ccc(CCC(=O)N2CCN(S(=O)(=O)c3ccc(OC(F)(F)F)cc3)CC2)cc1 | 1.5 | 3.5 | -0.7 | 3.8 | -0.5 | -1.3%
O=C(O)C1=CCCc2ccc(F)cc21 | -0.9 | 6.8 | 8.1 | -0.8 | -0.8 | 0.7%
Cc1ccc(C2C(=O)N(C3CCCC3)CC(=O)N2CC2COc3ccccc3O2)cc1 (stereo unspecified) | -0.4 | 1.6 | 0.0 | -6.5 | -4.8 | 6.3%[38.3 µM]
Cc1cc(N2CCN(C(=O)c3[nH]c(C(F)(F)F)nc3-c3ccccc3)CC2)c2ccccc2n1 | 0.2 | ? | ? | -3.0 | -4.7 | 7.7%
Cc1cccc(CN2CCc3c(OCC(=O)N4CCCc5ccccc54)cccc3C2=O)c1 | 0.2 | -3.5 | 0.7 | -11.4 | -0.9 | 2.7%
Cc1cccn2c(=O)c3cc(C(=O)NCCc4ccccc4)sc3nc12 | 1.4 | -7.8 | -8.3 | 2.7 | -2.7 | 1.3%
O=C(Nc1cccc(Cl)c1)N1CC2CCCN2c2ccccc21 (stereo unspecified) | 0.1 | / | / | -4.3 | / | -0.2%
COc1cccc(NC(=O)Nc2ccc3c(c2)N(C)C(=O)c2ccccc2S3)c1 | 0.1 | / | / | 5.0 | / | ?
COc1ccc(-c2csc3ncnc(N4CCN(S(=O)(=O)c5cccc(C(F)(F)F)c5)CC4)c23)cc1 | 0.1 | 7.2 | -3.3 | 1.2 | 1.6 | 9.0%

Screening results (PubChem)

Rows are unselected; about 1% have a hit in one of these screens.
